From PubChem
KCNQ2 enhance: potentiators of rat KCNQ2 potassium channel; Potassium voltage-gated channel subfamily KQT member 2 (Rattus norvegicus), O88943; CHO-K1 KCNQ2, FluxOR thallium flux fluorescence; hits give high values; B-score at 10 µM; actives 0.54% (n = 310,000); AID 2239, 2010;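 active = fluorescence ratio B-score at least 3 SD of library B-scores, with initial fluorescence B-score within 3 SD, cut at about 5.3 in these data; same plate scores as AID 2156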;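 note: B-score of peak minus minimum over baseline fluorescence ratio after K+ and Tl+ stimulus; positive B-score means potentiation of KCNQ2 with more thallium influx and brighter signal; only the inactives scoring about 0 or higher are listed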
Target sequence (O88943 whole entry, looked up): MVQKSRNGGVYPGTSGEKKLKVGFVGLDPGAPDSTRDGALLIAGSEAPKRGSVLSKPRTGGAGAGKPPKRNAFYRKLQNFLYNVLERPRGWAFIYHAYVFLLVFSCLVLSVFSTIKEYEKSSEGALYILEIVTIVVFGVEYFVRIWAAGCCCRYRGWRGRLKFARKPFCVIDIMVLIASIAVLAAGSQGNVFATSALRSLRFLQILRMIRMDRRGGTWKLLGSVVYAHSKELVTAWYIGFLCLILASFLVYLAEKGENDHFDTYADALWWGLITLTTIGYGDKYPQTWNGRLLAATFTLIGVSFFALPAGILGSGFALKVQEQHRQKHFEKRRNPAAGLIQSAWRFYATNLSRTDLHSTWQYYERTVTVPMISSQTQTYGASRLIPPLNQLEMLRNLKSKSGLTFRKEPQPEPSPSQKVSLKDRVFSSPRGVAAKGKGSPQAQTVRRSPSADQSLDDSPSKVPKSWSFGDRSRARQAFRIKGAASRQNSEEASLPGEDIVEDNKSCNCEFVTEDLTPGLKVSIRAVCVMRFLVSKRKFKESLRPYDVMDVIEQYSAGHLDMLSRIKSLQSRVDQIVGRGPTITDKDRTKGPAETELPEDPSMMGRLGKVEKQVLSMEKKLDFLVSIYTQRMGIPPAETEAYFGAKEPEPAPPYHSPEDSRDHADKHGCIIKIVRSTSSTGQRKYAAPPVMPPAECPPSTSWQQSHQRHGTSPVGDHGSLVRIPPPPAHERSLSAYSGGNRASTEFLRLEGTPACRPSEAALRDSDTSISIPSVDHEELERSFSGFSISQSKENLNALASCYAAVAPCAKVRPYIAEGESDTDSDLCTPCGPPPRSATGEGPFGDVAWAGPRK
KCNQ2 enhance baseline: recorded beside KCNQ2 enhance, whose call it bears; B-score; compound at 10 µM; measured here: initial fluorescence intensity artifact check;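 brightness before thallium and not channel activity; 0 = typical well and far values either way flag optical interference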
* marks the source's active call; other numbers are inactive results; / = not tested or not shown. Some of the compounds tested; count on the stated rates, not on these rows.

The line under a structure holds: KCNQ2 enhance, KCNQ2 enhance baseline
1) Cc1cc(C)c2nc(NNC(=O)c3ccc(S(=O)(=O)N4CC(C)CC(C)C4)cc3)sc2c1 (stereo not given)
    5.8*, -0.14*
2) ClCc1csc(-c2ccc(Cl)cc2)n1
    0.03, 2.4
3) N#Cc1ccc(/C=N/NC(=O)CCc2ccc(S(=O)(=O)N3CCOCC3)cc2)cc1
    0.74, 0.65
4) CCOC(=O)Cn1nc(C)c(NC(=O)COc2ccccc2[N+](=O)[O-])c1C
    1.3, -1.6
5) Cc1ccc(N2CC(C(=O)Nc3ccc(C)c(S(=O)(=O)N(C)C)c3)CC2=O)cc1 (stereo not given)
    0.74, 2.4
6) Cc1ccc(C#N)c(SCc2nnc(-c3ccc(Cl)cc3)o2)n1
    1.5, 0
7) CC(C)[C@H](NC(=O)N1CCC(Cc2ccccc2)CC1)C(=O)O
    0.6, -0.09
8) Cc1cc(Br)ccc1NC(=O)CNC(=O)CN(C)Cc1nc2ccccc2c(=O)[nH]1
    1.7, -1.7
9) CC(CC(=O)NCc1ccc(Cl)cc1)c1ccccc1 (stereo not given)
    5.9*, 0.1*
10) CCn1c(SCC(=O)NCc2ccc3c(c2)OCO3)nc2c(c1=O)SCC2
    0.71, 1.9
11) COCCn1c(=NC(=O)c2ccccc2[N+](=O)[O-])sc2cc(S(C)(=O)=O)ccc21
    1.9, 0.38
12) CC(=O)N/N=C(\C)C1COc2ccccc2O1 (stereo not given)
    0.18, -1
13) Cc1cc(C)cc(OCC(=O)NCc2nc(-c3ccccc3)no2)c1
    0.01, -1.7
14) COC(=O)[C@@H]1CCCN1Cc1nc(Cc2ccc(OC)c(OC)c2)no1
    0.01, 0.91
15) O=c1ccc2cc3c(-c4ccccc4)coc3cc2o1
    3, -1

Next compounds follow.
The line under a structure holds: KCNQ2 enhance, KCNQ2 enhance baseline
16) COC(C(=O)Nc1ccc(Br)cc1F)c1ccccc1 (stereo not given)
    0.37, 1.1
17) CCn1c(O)c(N=NC(=O)Cn2ccc(C(F)(F)F)n2)c2ccccc21
    0.07, 1.6
18) CCOC(=O)c1cccc(-n2c(C)nc3ccccc3c2=O)c1
    0.45, 2.3
19) O=C(CCN1CCCCC1)Nc1cccc(Br)c1
    0.1, 1.9
20) Cc1c(C=Nc2ccc(S(=O)(=O)CCO)cc2)c(O)[nH]c(=O)c1C#N
    1, 0.11
21) Cc1ccc2c(c1)N(C(C)C(=O)NCc1cccs1)C(=O)CO2 (stereo not given)
    0.93, 2
22) Cc1ccc(CSc2nc3ccncc3[nH]2)cc1
    1.1, 0.27
23) CC#CCCCC(=O)Nc1ccccc1C(=O)O
    0.57, -1.3
24) Cc1nc(N2CCOCC2)nc2c1CCCC2
    0.29, 0.34
25) COc1cccc2cc(C(N)=O)oc12
    0.38, 0.05
26) Cc1ccc(NC(=O)Nc2nc(-c3ccc(C)s3)cs2)cc1
    0.48, 0.03
27) COCCNC(=O)C(c1ccccc1F)N(C(=O)C(=O)NC1CCCC1)C1CCCCC1 (stereo not given)
    0.6, -0.21
28) COCCCNC(=O)CCCn1c(=O)[nH]c2ccccc2c1=O
    0.02, 1.2
29) CCc1ccc(CNCCSc2nnnn2C)cc1
    2.1, 0.33
30) Cc1cccc(N(CC(=O)NC(C)(C)C)C(=O)CNC(=O)c2cccs2)c1
    0.91, -3.3

Overlap with the part before: seven compounds, followed by the next part.
The line under a structure holds: KCNQ2 enhance, KCNQ2 enhance baseline
24) Cc1nc(N2CCOCC2)nc2c1CCCC2
    0.29, 0.34
25) COc1cccc2cc(C(N)=O)oc12
    0.38, 0.05
26) Cc1ccc(NC(=O)Nc2nc(-c3ccc(C)s3)cs2)cc1
    0.48, 0.03
27) COCCNC(=O)C(c1ccccc1F)N(C(=O)C(=O)NC1CCCC1)C1CCCCC1 (stereo not given)
    0.6, -0.21
28) COCCCNC(=O)CCCn1c(=O)[nH]c2ccccc2c1=O
    0.02, 1.2
29) CCc1ccc(CNCCSc2nnnn2C)cc1
    2.1, 0.33
30) Cc1cccc(N(CC(=O)NC(C)(C)C)C(=O)CNC(=O)c2cccs2)c1
    0.91, -3.3
31) COc1cc2c(cc1OC)C(c1ccc(O)cc1)NCC2 (stereo not given)
    1.4, 0.07
32) C[C@H](NS(=O)(=O)c1ccccc1)C(=O)OCC(=O)NC(=O)Nc1ccc2c(c1)OCCO2
    0.28, -0.66
33) CCOC(=O)c1sc(=S)n(-c2cc(F)ccc2F)c1N
    0.24, -0.12
34) CCc1n[nH]c(=S)n1/N=C/c1cc(Br)c(OC)cc1OC
    0.37, 0.24
35) CC(NC(=O)COC(=O)c1ccccc1SCC(=O)N1CCCC1)c1ccccc1 (stereo not given)
    0.04, 0.99
36) O=C(Cn1c(SCC(=O)NC2CCCC2)nnc1-c1ccncc1)Nc1ccc2c(c1)OCO2
    0.29, -0.21
37) O=C(CN1C(=O)NC2(CCCC2)C1=O)Nc1cccc(C(F)(F)F)c1
    2.4, -0.51
38) CCOC(=O)c1sc(NC(=O)CSc2nc(C)cc(-c3ccccc3)n2)c(C#N)c1C
    0.95, 0.9
39) Cc1cc(C(=O)NCc2ccccc2)c(=O)[nH]c1C
    1, 0.76
40) CC1CCN(c2c(NCC3CCC(C(=O)N4CCc5ccccc5C4)CC3)c(=O)c2=O)CC1 (stereo not given)
    0.07, -0.2
41) COC(=O)C1=C(C)N(CCC2=CCCCC2)C(=O)C1
    1.9, 0.75
42) S=c1[nH]nc(-c2ccc(Br)cc2)n1-c1ccc(Br)cc1
    0.37, 0.09
43) COc1ccc(N2C(=O)C3C(C2=O)C2C=CC3C23CC3)c([N+](=O)[O-])c1 (stereo not given)
    0.54, -0.5
44) COc1cc(OC)cc(-c2nc(=S)n3ccsc3n2)c1
    0.44, -0.03
45) O=[N+]([O-])c1cc(Cl)ccc1N1CCOCC1
    0.76, -0.83

Additional records follow:
The line under a structure holds: KCNQ2 enhance, KCNQ2 enhance baseline
46) COc1ccc2c(c1)c(=O)oc1cc(OCC(=O)NCC3CCC(C(=O)O)CC3)ccc12 (stereo not given)
    0.52, 0.19
47) CC(C)CCN(C(=O)CNC(=O)c1ccco1)C(C(=O)NC1CCCCC1)c1cccnc1 (stereo not given)
    2, -1.9
48) O=C(NCCCN1CCCCC1)C1CCC(CNS(=O)(=O)c2cccc3nsnc23)CC1 (stereo not given)
    0.93, 1.3
49) CN1/C(=C\C(=O)C(F)F)C(C)(C)c2ccccc21
    0.87, -0.96
50) Cc1ccccc1N1CC(C(=O)N2CC(C)CC(C)C2)CC1=O (stereo not given)
    1.8, -0.14
51) C#CCOC(=O)CN1C(=O)c2cccc3cccc(c23)C1=O
    0.96, -2.2
52) CCn1cc(C(=O)NC(=S)Nc2cccc(O)c2)cn1
    2.2, -0.41
53) CCc1ccc(C(=O)NCc2ccc(Cl)cc2)cc1
    0.76, 0.01
54) COc1cc(/C=N/NC(=O)c2csc3c2CCCC3)cc(OC)c1O
    0.42, -1.4
55) CCNC(=S)NNC(=O)c1c(Cl)c(C)nn1C
    1.9, 0.73
56) Cc1ccc(N(CC(=O)N2CCOCC2)S(C)(=O)=O)cc1C
    1.6, 0.06
57) Cc1cccc(C(=O)NCCN(C)C)c1
    0.08, 0.22
58) O=C(O)C(CCCCNS(=O)(=O)c1ccc(F)cc1)NS(=O)(=O)c1ccc(F)cc1 (stereo not given)
    0.02, /
59) O=C(COc1ncnc2ccc(Br)cc12)Nc1ccc(N2CCOCC2)cc1
    0.75, 0.09
60) CCOC(=O)c1oc2c(CN3CCCCC3C)c(O)ccc2c(=O)c1-c1ccc(OC)c(OC)c1 (stereo not given)
    0.79, 2.5

Further records follow:
The line under a structure holds: KCNQ2 enhance, KCNQ2 enhance baseline
61) CN(CCOc1ccc(CC2SC(=O)NC2=O)cc1)c1ccccn1 (stereo not given)
    0.37, /
62) O=C(CCCCC(=O)NNC(=O)COc1ccccc1)NNC(=O)COc1ccccc1
    0.42, 1.7
63) NS(=O)(=O)c1cc(C(=O)Nc2ccc3c(c2)OCCCO3)ccc1Cl
    0.04, 4.5
64) Cc1cccc[n+]1CC(=O)Nc1ccc([N+](=O)[O-])cc1Cl
    0.32, 0.39
65) COc1ccc(-c2nnn(CC(=O)NCCc3c[nH]c4ccccc34)n2)cc1OC
    0.28, 0.78
66) CC1(OC(=O)CCc2ccccc2)C(=O)C=C2C=C(c3ccc(C#N)cc3)N(CCc3c[nH]c4ccccc34)C=C2C1=O (stereo not given)
    0.37, 0.33
67) CSc1nnc(NC(=O)c2ccco2)s1
    1.6, 0.67
68) COc1cc(C(=O)N=c2sccn2C)c([N+](=O)[O-])cc1OC
    1.4, -0.59
69) CCCCSc1nnc2nc(C)cc(C)n12
    1.5, -0.59
70) Cc1nc(Cl)c2c(n1)NC(=O)CO2
    0.13, 0.45
71) C=C(C)c1nc(N)nc(N)n1
    1.8, -1.1
72) Cc1cc(C(=O)Nc2ccc3nc(C)sc3c2)c2ccccc2n1
    1.1, -1.2
73) Cc1[nH]c(C)c(S(=O)(=O)Nc2ccccc2Cl)c1C(=O)N1CCCC1
    1.6, 2
74) CCN1C(=O)[C@H]2[C@@H](c3ccc(Cl)cc3)N3C(=O)CN(CC4CC4)C(=O)[C@@]3(Cc3ccccc3)[C@H]2C1=O
    0.27, -0.02
75) Cc1cc(C(=O)COC(=O)CCc2nc3ccccc3c(=O)[nH]2)c(C)n1CC1CCCO1 (stereo not given)
    0.43, 0.28

The list goes on:
The line under a structure holds: KCNQ2 enhance, KCNQ2 enhance baseline
76) O=C(c1ccc(Cl)c(S(=O)(=O)N2CCCC2)c1)N1CCOCC1
    1.1, 1.4
77) CC(NC(=O)C12CC3CC(CC(C3)C1)C2)c1ccc(F)cc1 (stereo not given)
    0.38, -2.4
78) COC(=O)[C@@H](C)NC(=O)c1ccc2oc(CCc3ccccc3)nc2c1
    1, 2
79) CCCc1nc(NCCO)c(C#N)c2c1CCCC2
    3.6, -0.86
80) NNC(=O)CN1C(=O)Nc2ccc(Br)cc2C1c1ccccc1 (stereo not given)
    0.29, 1.6
81) COc1ccc(NC(=O)C/C(C)=N/NC(=O)C2CCCCC2)c([N+](=O)[O-])c1
    0.3, 0.15
82) CCOC(=O)c1cc2nc(-c3ccccc3)cc(C)n2n1
    0.89, 0.89
83) Cc1ccc2nc(N3CCN(Cc4nnnn4C4CCCC4)CC3)c(C#N)cc2c1
    0.03, -0.84
84) CCc1ccc(N2CC(C(=O)OCC(=O)c3c(N)n(CC(C)C)c(=O)n(C)c3=O)CC2=O)cc1 (stereo not given)
    2.5, -0.93
85) CCN(CC(=O)NCc1cccnc1)S(=O)(=O)c1ccc(OC)cc1
    0.68, -0.24
86) COC(=S)N/C(=N\S(=O)(=O)c1ccc(Cl)cc1)c1ccccc1
    1.4, 0.07
87) CC1CC2(CCCCC2)Nc2c1ccc1ccccc21 (stereo not given)
    0.52, -2.1
88) Nc1nonc1C(=Nc1ccc(Br)cc1)NO
    0.96, -2.5
89) CCOC(=O)c1cnc2nc(N3CCOCC3)nn2c1N
    0.78, -1.2
90) Cc1ccc(C)c(NC(=O)CCc2nnc3ccc(N4CCCCC4)nn23)c1
    1.3, 1.4

(listing goes on)
The line under a structure holds: KCNQ2 enhance, KCNQ2 enhance baseline
91) N#Cc1ccccc1CSc1nc(O)cc(=O)[nH]1
    0.44, 0.64
92) COC(=O)c1ccc(OCCOCCOc2cccc3ccc(C)nc23)cc1
    0.07, -0.93
93) O=C(NC1CCCc2ccccc21)c1ccc(CNc2c(N3CCOCC3)c(=O)c2=O)cc1 (stereo not given)
    1.1, -0.14
94) N/C(=N\OC(=O)c1cccnc1)c1ccccc1Cl
    1.1, 0.72
95) c1ccc(-n2ncc3c(NCc4cccs4)ncnc32)cc1
    1.7, -0.25
96) O=C(Nc1ccccc1Cl)Nn1cnnc1
    0.3, 0.21
97) Cc1ccc(NC(=O)CSCC(=O)N2CCN(c3cccc(C(F)(F)F)c3)CC2)cc1
    0.05, -0.2
98) O=C(C1CC(=O)N(c2ccccc2)C1)N1CCN(C2=NS(=O)(=O)c3ccccc32)CC1 (stereo not given)
    0.87, 0.04
99) O=C(Cc1ccccc1)NNC(=O)c1ccccc1C(=O)O
    2.5, 0.89
100) CCCC/C(C)=N/NC(=O)CN(c1ccc(Br)cc1)S(=O)(=O)c1ccccc1
    0.17, 0.01
101) Cc1cc(-c2ccc(S(=O)(=O)N3CCc4ccccc4C3)s2)on1
    0.12, 0.8
102) CCOC(=O)c1c(C)n(-c2ccc(OC)cc2)c2c(C/C(C)=N/O)c(Br)c(OC)c(O)c12
    1.4, 1.7
103) O=C(/C=C/c1cccc([N+](=O)[O-])c1)Nc1ccccn1
    2.1, -0.32
104) O=C(c1cccc(N2C(=O)C3C4C=CC(C4)C3C2=O)c1)N1CCCc2ccccc21 (stereo not given)
    0.27, -1.9
105) Cc1ccc(Cn2c(N)nc3ccccc32)cc1
    2.2, 0.87

(listing goes on)
The line under a structure holds: KCNQ2 enhance, KCNQ2 enhance baseline
106) Cc1c(-n2c(CN3C(=O)c4ccccc4C3=O)nc3ccccc3c2=O)c(=O)n(-c2ccccc2)n1C
    1.7, -0.97
107) COC(=O)C1=C(C(=O)OC)[C@@H]2N(Cc3ccccc3)c3ccccc3[C@@]23C[C@@H](C(=O)OC)N(C(=O)c2cc(C)oc2C)C3=N1
    0.7, -0.23
108) Cc1cccn2c(=O)c3cc(C(=O)NC4CCCC4)c(=N)n(C4CCCCC4)c3nc12
    1.1, 2.8
109) CCOC(=O)CCCCCNC(=O)c1ccc(F)cc1F
    2.5, -0.59

Copied from the list.
compound 106 in KCNQ2 enhance: 1.7
compound 107 in KCNQ2 enhance: 0.7
